HSD17B inhib = inhibitors of human HSD17B10 dehydrogenase; actives 7.6% (n = 75,000); AID 893; Q99714; recombinant HSD17B10, NADH fluorescence kinetic; many of its hits are not listed in these tables; Potency, µM (highest dose often 57.1 µM), without a hit: at the highest dose activity change, negative = inhibition, usual class: inhibitors; active = well fitted inhibition curve with a large enough effect; inconclusive = small, poorly fitted or top-dose-only effect; inactive = no such curve, though single readings can be large or run the other way;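 note: the protocol describes HADH2 (HSD17B10) and not the HSD17B4 of the title; nearly all actives have a fitted effect of over 70% in size; most hits overshoot -100% by far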
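Enzyme plus compound, 15 min room temperature; substrate mix added (NAD+ 1 mM, beta-hydroxybutyryl-CoA 90 uM final); plates read kinetically for NADH fluorescence. HADH2 was His-tagged, E. coli-derived, 20 nM.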
The depositor's hits bear a star; ? = inconclusive; [ ] = dose if it differs, or a comment. % is set by controls: 0 for no effect and ±100 for the full control effect; potency is the fitted concentration of half-maximal effect.

nr	mol	HSD17B inhib
1	COC(=O)c1ccc(C(=O)OC)c(NC(=O)CSc2nnc(-c3ccccc3Cl)o2)c1	-2%
2	COc1cc(C)c(C(C)C)cc1S(=O)(=O)NCCCn1ccnc1	-16%
3	N#Cc1c(SCC(=O)N2CCCCC2)nsc1SCC(=O)N1CCCCC1	-1%
4	CCCC(=O)O[C@]1(C(=O)CO)CCC2[C@@H]3CCC4=CC(=O)CC[C@]4(C)C3C(O)C[C@]21C (some centres undefined)	2%
5	COc1ccc(OC)c(S(=O)(=O)N(C)CC(=O)N2CCc3ccccc3C2)c1	8%
6	Cc1ccc(CNC(=O)CSc2nc(C)cc(C)c2C#N)cc1	-6%
7	CCn1c(SCC(=O)NC2CCCCC2)nc2c(c1=O)SC(C)C2 (centres undefined)	10%
8	COc1ccc(N(C(C)C(=O)NCc2ccco2)S(C)(=O)=O)cc1 (centres undefined)	0%
9	CCOc1ccccc1NC(=O)N1CCCC1C(=O)Nc1nnc(CC)s1 (centres undefined)	9%
10	COc1cccc(NC2=NCC(=O)N2Cc2cccs2)c1	-3%
11	COc1cccc(-c2noc(CCC(=O)NC3CCCCC3)n2)c1	1%
12	COC(=O)CCn1nnc(-c2ccc(C(C)C)cc2)n1	4%
13	CCOC(=O)CNC(=O)Cn1cnc2c(nnn2-c2ccc(F)cc2)c1=O	13%
14	CCOC(=O)c1sc(C)c(C(=O)NCCCN2CCOCC2)c1N	?
15	COc1ccccc1NC(=O)N1CCN(c2ccccn2)CC1	?
16	CSc1nnc2c3cc(F)ccc3n(Cc3ccccc3)c2n1	0%
17	COc1ccc(C2CC3CC(c4ccccc4)N2O3)cc1 (centres undefined)	-3%
18	O=c1c2ccccc2nc(SCc2cc(F)cc3c2OCOC3)n1Cc1ccco1	-2%
19	CCOC(=O)c1c(NC(=O)CNCCO)sc(C)c1C	-3%
20	CCCCCCCCCCC(C)(C)C(=O)Nc1c(OC)cc(OC)cc1OC	-20%
21	CC(=O)OCC1=C(C(=O)O)N2C(=O)[C@@H](NC(=O)Cc3cccs3)[C@@H]2SC1	-12%[25.6 µM]
22	CC1=C(C#N)C(c2ccoc2)C(C(=O)OCc2ccccc2)=C(N)S1 (centres undefined)	-16%
23	O=C(c1cc(C(F)(F)F)cc(C(F)(F)F)c1)N1CCC2(CC1)CN(c1ccncc1)C2	9%
24	C=CC[C@@H](C(=O)O)c1ccccc1	9%[11.4 µM]
25	O=C(Cn1cc2c(n1)CCCCC2)NCc1cccs1	9%
26	Cc1ccc(Cc2c(C)nc3c(C(=O)O)cnn3c2C)cc1	?
27	CC(C)Cn1c(CN2CCCCC2C)nc2c1c(=O)n(C)c(=O)n2C (centres undefined)	7%
28	COc1ccc(CCNC(=O)CN(c2ccc(OC)c(OC)c2)S(C)(=O)=O)cc1OC	0%
29	CC(=O)NCCNc1ncnc2ccc(-c3ccoc3)cc12	25µM*
30	COC(=O)c1ccccc1NC(=O)Nc1ccc(C(=O)N2CCCC2)cc1	1%
31	CCOC(=O)c1sc(NCc2ccco2)c(-c2nc3ccccc3s2)c1N	-7%
32	CCCCOc1cc(C(=O)NCCN(CC)CC)c2ccccc2n1	-19%
33	Cn1cccc1Cc1nnc(SCC(=O)Nc2ccc(F)cc2)n1CCc1ccccc1	?
34	NCCOC[C@H](N)C(=O)O	6%[11.4 µM]
35	Clc1ccc(SCCn2cncn2)cc1	2%
36	O=C1CN(C(=O)c2ccccn2)c2ccccc2N1	-9%
37	COCC(C)n1c(C)cc(C(=O)CN2C(=O)NC3(CCCCC3C)C2=O)c1C (centres undefined)	5%
38	COc1ccc(NC(=O)c2cc3ccccc3o2)cc1	8%
39	Cc1ccc(C(=O)CSc2nc(N)cc(=O)[nH]2)cc1	-5%
40	Cn1c(=O)c2cn3ncccc3c2n(C)c1=O	?
41	Cc1cnc(C(=O)OCC(=O)N2CCN(C(=O)c3ccco3)CC2)cn1	-3%
42	Cc1cc(N2CCc3ccccc32)n2ncnc2n1	?
43	O=C(Cn1nnc(-c2ccccc2)n1)OCc1ccccc1	13%
44	Cc1sc2nc(CSc3nc4ccccc4c(=O)n3CCCN3CCOCC3)[nH]c(=O)c2c1C	-22%
45	CC1CCc2nc(N)c(C#N)c(-c3ccncc3)c2C1 (centres undefined)	7%
46	CSc1nccc(Nc2ccccc2)c1C#N	-11%
47	N#CC1=C(N)N(c2ccc(Br)cc2)C2=C(C(=O)CCC2)C1c1cccnc1 (centres undefined)	-8%
48	COCCOC(=O)C1=C(C)Nc2nc(C)nn2C1c1ccccc1 (centres undefined)	1%
49	C=CC1C(N2CCOCC2)C(C)(C)S1(=O)=O (centres undefined)	11%
50	CC(C(=O)O)C1SC(=O)NC1=O (centres undefined)	-5%
51	O=C1c2ccccc2C(O)N1c1ccc(Cl)cc1 (centres undefined)	?
52	CCc1nc(SCC(=O)N2CCOCC2)c2c(=O)n(C)c(=O)n(C)c2n1	12%
53	O=C(NCCOC(=O)c1ccncc1)c1ccccc1	1%
54	O=C(NCCc1cn2ccccc2n1)c1ccccc1F	?
55	CCOP(=O)(c1ccccc1Cl)C1(O)CCCCC1 (centres undefined)	16%
56	Cc1ccc(-c2cn3c(n2)CCCC3)cc1	-1%
57	O=C1c2ccccc2C(=O)N1c1nc2nccc(-c3ccccc3)n2n1	35%[activator]
58	NC(=O)NCc1ccccc1	-4%
59	Brc1ccc2nc3c(n2c1)CCCC3	-2%
60	COc1ccccc1/C=C/C1=CC2(C)CC1(C)C(c1ccccc1OC)CC2=O (centres undefined)	3%[11.4 µM]

Remaining list, next part.
nr	mol	HSD17B inhib
61	O=C(Cc1ccccc1)Nc1ccc2oc(-c3cccnc3)nc2c1	10µM*
62	CC1CCCCC1NC(=O)CN(C)S(=O)(=O)c1cccc2nsnc12 (centres undefined)	-2%
63	O=C(Nc1nccs1)c1cccc(S(=O)(=O)N2CCCCC2)c1	-2%
64	CCOc1ccc(S(=O)(=O)Nc2ccccc2C(=O)Nc2ccccc2N2CCOCC2)cc1	12%
65	CCSCCOC(=O)C1=C(C)N(C)C(=O)NC1c1cc(OC)ccc1OC (centres undefined)	0%
66	COc1ccc2c(c1)C(=O)N(CCc1ccc(S(=O)(=O)NC(=O)NC3CCCCC3)cc1)C(=O)C2(C)C	13µM*
67	CN(c1nnc(N)s1)C1CCCCC1	-10%
68	COc1ccc(C(C#N)N2CCCCC2)cc1OC (centres undefined)	7%
69	O=S(=O)(O)c1ccc(N=Nc2ccccc2)cc1	9%[11.4 µM]
70	Cc1cc(C(=O)CSc2nnnn2C)c(C)n1CCc1ccc(Cl)cc1	-20%
71	CS(=O)(=O)Nc1cccc(-c2nc(NCc3ccccc3)c3ccccc3n2)c1	-26%
72	CN(C(=O)c1ccccc1)c1nc2ccccc2s1	2%
73	Nc1nonc1-c1nc2ccccc2n1CC(=O)NC1CCCC1	-2%
74	CC(=O)OC(C(=O)Nc1ccccc1)C(C)S(=O)(=O)c1ccccc1 (centres undefined)	?
75	C[C@@]1(CCOCc2ccccc2)NC(=O)NC1=O	-1%[11.4 µM]
76	CCCCN(CCCC)CCn1cnc2c([nH]c3ccc(OC)cc32)c1=O	?
77	COc1cccc(Cn2c(=O)c(C)nc3cnc(Oc4cccc(Cl)c4)nc32)c1	-2%
78	COC(=O)c1ccccc1NC(=O)c1sc(N)nc1C	2%
79	CCN(CC)CCN1C(=O)C(=O)/C(=C(/O)c2ccncc2)C1c1ccccc1F (centres undefined)	1%
80	O=C(NCCN1CCCCCC1)c1ccc(N2CCCC2=O)cc1	17%
81	CCc1ccc(NC(=O)c2noc3c2CCCCC3)cc1	32µM*
82	CCC(C)c1cc(S(=O)(=O)N2CCOCC2)ccc1OC (centres undefined)	-1%
83	CC(C)CCNC(=O)C(c1cccs1)N(CC1CCCO1)C(=O)Cn1nnc2ccccc21 (centres undefined)	1%
84	COc1ccc(C(=O)N2CCN(c3ccc(C)cc3C)CC2)cc1OC	1%
85	OC(COCc1cccs1)CN1CCCCCC1 (centres undefined)	17%
86	O=C(c1cccc(F)c1)N1CCC[C@@]2(CCN(Cc3ccncc3)C2)C1	-7%
87	Fc1ccc(CSc2nnc(-c3cccnc3)n2Cc2ccco2)cc1	2%
88	NC(N)=Nc1ccc(Cl)cc1	-4%
89	CC(=O)Nc1nonc1-n1nnc(C(=O)NCc2ccccc2)c1C	9%
90	CN(C)CCCNCCCNC(=O)c1ccncc1	8%
91	Cc1ncoc1C(=O)Nc1cccc(Cl)c1C	2%
92	COc1cc2c(cc1OC)C(c1cccs1)CC(=O)N2 (centres undefined)	5%
93	CCCc1cc(=O)[nH]c(SCC(=O)c2c(N)n(C)c(=O)n(C)c2=O)n1	16%
94	Cn1c(=O)c(C(=S)NC(=O)C2CC2)c(N)n(Cc2ccccc2)c1=O	-13%
95	O=C1[C@H]2CCn3c(=O)n(-c4ccccc4)c(=O)n3[C@H]2[C@H](O)[C@H]2O[C@@H]12	5%[11.4 µM]
96	O=S(=O)(Nc1cccnc1)c1ccc(Cl)c(C(F)(F)F)c1	10%
97	Cc1ccc(CNC(=O)CCCNS(=O)(=O)c2cccc3nonc23)cc1	8%
98	O=S(=O)(c1ccccc1)N1CCC2(CCCN(Cc3ccncc3)C2)CC1	11%
99	CC(C)CCC(CCN1CCOCC1)c1ccc2c(c1)OCO2 (centres undefined)	-3%
100	O=C(c1c[nH]c2ccc(S(=O)(=O)N3CCC4(CC3)OCCO4)cc2c1=O)N1CCOCC1	25µM*
101	Cc1ccc(-n2ccnc2SCC(=O)N(CC(C)C)C2CCS(=O)(=O)C2)c(C)c1 (centres undefined)	7%
102	Cc1nn(C(C)(C)C)c(OC(=O)c2cccs2)c1S(=O)(=O)c1ccccc1	4%
103	COc1ccc(OC)c(-c2cc(C(=O)NCCN3CCOCC3)no2)c1	-1%
104	COc1nc(N)nc(NC23CC4CC(CC(C4)C2)C3)n1	-8%
105	Cc1cc(C)cc(-n2nnc(C(=O)NCc3ccccc3Cl)c2N)c1	6%
106	CC(C)OCCCNC(=O)NC12CC3CC(CC(C3)C1)C2	6%
107	Cc1ccccc1NC(=O)CC1SC(=NC2CCCCC2)NC1=O (centres undefined)	-9%
108	CC(=O)Nc1ccc(S(=O)(=O)NC(CC(=O)NC2CCCCC2C)C(C)C)cc1 (centres undefined)	0%
109	CCN(CC)CCN1C(=O)c2oc3ccccc3c(=O)c2C1c1cccc(Br)c1 (centres undefined)	0%
110	CS(=O)(=O)Nc1cccc(-c2ccc3ncnc(N4CCNCC4)c3c2)c1	9%
111	O=C1C2C3C=CC(C3)C2C(=O)N1CN(Cc1ccccc1)CN1C(=O)C2C3C=CC(C3)C2C1=O (centres undefined)	6%
112	O=C1NCCCc2c1no[n+]2[O-]	2%
113	C/C(NCc1cccnc1)=C(\C#N)C(=O)NCc1ccccc1	1%
114	CCCC1(C(=O)OC)NC(c2cc(OC)c(OC)c(OC)c2)C2C(=O)N(CC)C(=O)C21 (centres undefined)	7%
115	COc1ccccc1NC(=O)N1CCCC1C(=O)Nc1ccc2c(c1)OCO2 (centres undefined)	12%
116	O=C(NC1CCCCCC1)C1CCN(S(=O)(=O)N2CCC3(CC2)OCCO3)CC1	10%
117	CC1(C)CC(=O)C2=C(C1)OC(N)=C(C#N)C2c1ccsc1 (centres undefined)	2%
118	CCOC(=O)c1c(C)[nH]c(C(=O)NCc2ccccc2OC)c1C	8%
119	CC(=O)c1ccc(N2CCCC2)c(F)c1	-8%
120	CCOC(=O)Cn1c(=O)oc2cc(S(=O)(=O)Nc3cccc(C)c3)ccc21	6%

Carrying on.
nr	mol	HSD17B inhib
121	C=C(C)Cn1c(Sc2nnc(C)s2)nc2c1c(=O)[nH]c(=O)n2C	-1%
122	Cc1cnc(CNc2ncnc3ccc(-c4ccccc4C)cc23)cn1	-1%
123	c1ccc(-c2nc3cc(Cc4ccc5oc(-c6ccccn6)nc5c4)ccc3o2)nc1	?
124	CS(=O)(=O)N(CC(=O)N1CCCC1)c1ccc(Cl)c(Cl)c1	0%
125	CC(C)CCNc1nc(N2CCCC2)c2c(c1C#N)CCN(C)C2	?
126	O=C(c1cc2ccccc2oc1=O)N(Cc1ccco1)Cc1cccs1	-11%
127	CC(C)OCC1CO1 (centres undefined)	-4%
128	Cc1cccc(NC(=O)c2cc3ccccc3o2)c1	2%
129	Cc1noc(C)c1-c1cc(N2CCNCC2)ncn1	-13%
130	CCCn1nnnc1SCC(=O)Nc1ccc(F)cc1	10%

High-throughput results as filed in PubChem BioAssay.

Not all compounds are listed. The share of hits here may be higher or lower than overall.
